Screening data (PubChem)
CDC25B CDK2 inh: primary biochemical HTRF screen for blockers of M-phase inducer phosphatase 2 binding to CDK2/cyclin A. P30305+P24941. HTRF CDC25B-CDK2/CyclinA binding, anti-His/anti-Flag; hits give high values. actives 0.72% (n = 94,000). z-score (no concentration beside the values). AID 1259370, 2018;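 further: score is relative to mean and SD of negative controls; strong numbers were not always called active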
TAR Tat displ: TAR RNA-Tat peptide displacers, HIV-1, primary screen, biochemical, FRET, FAM/TAMRA-labeled Tat. AID 1259389, 2018. z-score (concentration not given with the values). actives 0.6% (n = 100,000). HIV-1 TAR RNA, Tat peptide displacement FRET; hits give high values;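 further: score is relative to mean and SD of negative controls; some compounds called inactive have numbers as strong as hits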
* hit, by the source's call; · = no result given.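 How the source made its calls: active means z-score from 3 up in half or more of its runs; inactive means the rest.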

SMILES	CDC25B CDK2 inh	TAR Tat displ
O=C(CSc1nnnn1-c1cccc(Cl)c1)Nc1ccc2c(c1)OCO2	0.23	0.85
COc1ccc(Cl)cc1NC(=O)CSc1nncn2c1cc1sccc12	·	2.2
Cc1nc2c3ccccc3n3c(CCCC(=O)NCc4ccco4)nnc3n2n1	-0.62	·
CCCCCCn1c(=O)c(C2=NS(=O)(=O)c3ccccc3N2)c(O)c2ccccc21	·	2
Cn1nc(C(F)(F)F)cc1OS(=O)(=O)c1cc(Cl)c(Cl)cc1Cl	-0.06	·
O=C(CO/N=C/c1ccc(Cl)cc1Cl)NNC(=O)c1ccc(Cl)cc1Cl	0.81	·
COCCNC(=O)c1cc2c(=O)oc3ccccc3c2n1C	·	-1
CC(C)CSc1nc(N)c2c3c(sc2n1)CCC3	-1.9	·
COc1ccc(-c2c3c(=O)n(C)c(=O)n(C)c3c3n2C(C)(C)COC3c2ccc(F)cc2)cc1 (centres undefined)	-1.6	1.1
CCCC(O)(c1ccc(CC)cc1)C(CN1CCOCC1)c1ccccc1 (centres undefined)	-0.61	5.7

Pulled by structure from above, two records:
SMILES	CDC25B CDK2 inh	TAR Tat displ
COCCNC(=O)c1cc2c(=O)oc3ccccc3c2n1C	·	-1
O=C(CO/N=C/c1ccc(Cl)cc1Cl)NNC(=O)c1ccc(Cl)cc1Cl	0.81	·

Later entries.
SMILES	CDC25B CDK2 inh	TAR Tat displ
CCOC(=O)c1ccc(N2NC(=O)/C(=C/c3cc(Br)cc(Br)c3OCC)C2=O)cc1	-1.7	·
N#Cc1ccc(S(=O)(=O)N2CCNC(=O)C2CC(=O)Nc2cc(Cl)ccc2Cl)cc1 (centres undefined)	-0.25	·
O=C(NCCc1c[nH]c2ccccc12)C(Cc1ccccc1)N1Cc2ccccc2C1=O (centres undefined)	·	-0.75
CCN1c2ccccc2-c2nc(SCC(=O)Nc3cccc(SC)c3)ncc2S1(=O)=O	·	-0.85
O=C(NCc1ccc(F)cc1)NC1COc2ccccc2C1 (centres undefined)	·	1.2
Cc1ccc(Cl)cc1N1CCN(c2ncnc3onc(C)c23)CC1	·	-0.12
N#CC(C#N)=C(C#N)c1ccco1	-0.41	·
Cc1ccc(N2N=C(C(=O)OC(C)(C)C)S(=O)(=O)c3cccnc32)cc1	-1.3	1.6
CCCCc1cc(=O)oc2c(C)c(OCC(=O)O)ccc12	-0.78	·
O=C(Cn1ncc2c3ccccc3n(Cc3ccccc3)c2c1=O)NCc1cccnc1	-1.9	0.61

Compounds shown so far that have a cyano group, in the order listed:
SMILES	CDC25B CDK2 inh	TAR Tat displ
N#Cc1ccc(S(=O)(=O)N2CCNC(=O)C2CC(=O)Nc2cc(Cl)ccc2Cl)cc1 (centres undefined)	-0.25	·
N#CC(C#N)=C(C#N)c1ccco1	-0.41	·

(further entries)
SMILES	CDC25B CDK2 inh	TAR Tat displ
O=S1(=O)C[C@H](NCc2ccco2)[C@@H](S(=O)(=O)c2cccs2)C1	-1.4	-0.2
CCCS(=O)(=O)c1nc(S(=O)(=O)c2ccc(C)cc2)c(NCCOC)s1	-1.5	-1.1
O=C(NCc1ccccc1Cl)c1cccc(NC2=NC3CS(=O)(=O)CC3S2)c1 (centres undefined)	-0.56	2.5
Cc1nc2c3ccccc3n3c(CCCC(=O)N4CCN(c5cccc(Cl)c5)CC4)nnc3n2n1	-0.25	·
Clc1ccc(-n2cc(-c3ccccc3)c3c(NCCCn4ccnc4)ncnc32)cc1	-0.25	-0.24
Cc1cc(SCC(=O)c2c[nH]c3ccccc23)nc(C)n1	0.81	-4.9
Cc1cc(CN2CCN(C3CCCCC3)CC2)cs1	·	2.3
CCc1nn(CC(=O)NCCN2CCN(C)CC2)c(=O)c2cc3occc3n12	-2.5	2.4
CC1CCc2nn(CC(=O)NC3CCCCC3C)cc2C1 (centres undefined)	-0.4	0.94
O=C1c2cccnc2C(=O)N1CCc1ccc(S(=O)(=O)NCc2cccs2)cc1	·	1.2
Cc1sc(-c2nc(-c3ccccc3)no2)cc1S(=O)(=O)N1CCc2ccccc2C1	·	0.54
NC1=NC(=O)C(C2(O)C(=O)Nc3ccc(F)cc32)S1 (centres undefined)	·	0.54
O=S(=O)(c1ccc(Cl)c2ccccc12)N1CCN(c2ccccc2)CC1	-0.93	0.79
CN1CCN(C(=O)Cn2ncc3c4ccccc4n(C)c3c2=O)CC1	-0.8	0.44
COc1ccc(-c2noc(CNC3CCCCC3)n2)cc1	1.3	0.99
CCOC(=O)c1ccc2c(c1)NC(=NC1CCCC1)C1(CCCCC1)N2	·	0.83
CC1(C)COCN1S(=O)(=O)c1ccc(C(=O)Nc2nnc(-c3ccc(F)cc3)o2)cc1	-0.43	·
O=S(=O)(c1cccc2cccnc12)N(CCc1ccccc1)Cc1ccccc1	-0.27	·
Cc1cc(C)c(NS(=O)(=O)c2cc3c4c(c2)C(C)C(=O)N4CCC3)c(C)c1 (centres undefined)	·	1.7
Fc1ccc(-c2nnc3c4c(cnn23)nnn4Cc2ccccc2Cl)cc1	-0.8	1.9
Cn1cc(S(=O)(=O)N2CCc3ccccc32)cc1C(=O)Nc1ccc(Cl)cc1	·	1.9
O=C(CCN1C(=O)c2ccccc2C1=O)Nc1ccc(S(=O)(=O)Nc2nccs2)cc1	-0.86	·
CCOC(=O)c1c(C)[nH]c(C)c1S(=O)(=O)Nc1cccc(SC)c1	·	0.3
CCOc1cc(C2C(C(=O)OC3CCCCC3)=C(C)NC3=C2C(=O)CC(C)(C)C3)ccc1O (centres undefined)	-1.4	0.23
O=S1(=O)CCCCN1c1ccc(S(=O)(=O)N2CCOCC2)cc1	·	0.48
Cc1cc(-c2ccc(=O)[nH]n2)cc(S(=O)(=O)N2CCCC(C)C2)c1C (centres undefined)	·	1.1
CCOC(=O)C(CC)n1c(C)c2cnn(-c3ccccc3)c(=O)c2c1C (centres undefined)	-1.6	-0.13
CCN1CCN(C(=O)c2noc3c2COc2ccccc2-3)CC1	-1.5	1.6
O=C(O)C1CCC(c2ccc(-c3ccccc3)cc2)CC1 (centres undefined)	-0.55	0.93
COC(=O)C1=CN(C2CC2)C=C(C(=O)OC)C1c1ccc(C(F)(F)F)cc1	-0.31	·
Cc1ccc(-n2nc(C)c3c(C)c(CCC(=O)Nc4ccc5c(c4)OCO5)c(C)nc32)cc1	-1.3	·
O=C1CCC(=O)N1CNc1cc(Cl)c(Cl)cc1Cl	-0.85	·
COc1cccc(-c2noc(C3CCCN(S(=O)(=O)c4ccc(Br)cc4)C3)n2)c1 (centres undefined)	·	1.2
COc1ccc(Br)cc1CNC(C)(C)CO	0.43	0.81
O=C(c1cnn2c1NC(c1ccccc1)CC2C(F)(F)F)N1CCOCC1 (centres undefined)	-0.39	-0.02
CC(C)n1c(=O)c2c(C(=O)O)cc(=O)n(C(C)C)c2n(C)c1=O	-2	2
Cc1cc(S(=O)(=O)Nc2ccccn2)c(C)cc1Cl	-1.3	1.2
O=C(CCCn1c(=S)[nH]c2cc3c(cc2c1=O)OCO3)NCC1CCCO1 (centres undefined)	-2.3	·
CCOC(=O)NC(NNc1ccc([N+](=O)[O-])cc1[N+](=O)[O-])(C(F)(F)F)C(F)(F)F	-1.7	·
O=C(Cn1c(=O)n(-c2ccccc2)c(=O)c2c3c(sc21)CCCC3)Nc1ccc2c(c1)OCCO2	-0.33	0.38
O=S1(=O)C[C@H](NCc2ccc(Cl)cc2)[C@@H](S(=O)(=O)c2ccccc2)C1	-1.6	-0.69
CCOCCCNC(=O)c1cc2c(=O)n3cccc(C)c3nc2n1C	·	0.94
O=C(CSc1nc2c(c(=O)[nH]1)CCC2)NC1CCCCC1	-2.7	2.7
CC1CC(=O)Nc2cc(S(=O)(=O)NCc3ccco3)ccc2S1 (centres undefined)	·	-0.49
CN(C)S(=O)(=O)N(CC(=O)NCc1ccccn1)c1ccccc1	-1.1	-1.5
CC1=C(C(=O)N2CCCC2)C2(CCN(S(C)(=O)=O)CC2)OC1=O	·	1.4
CCC(C)N(CCNC(=O)Nc1cn(C)c(=O)c2ccccc12)Cc1ccco1 (centres undefined)	12*	1.1
CCOC(=O)C1=NOC2C(=O)N(c3ccc(Br)cc3)C(=O)C12 (centres undefined)	0.55	-0.54
O=C(CS(=O)(=O)c1ccccc1)Nc1nc(-c2nc3ccccc3s2)cs1	·	0.51
COC(=O)CN1C(=O)C(C)(C)c2cc(S(=O)(=O)N3CCc4ccccc4C3)ccc21	·	0.38

More entries follow:
SMILES	CDC25B CDK2 inh	TAR Tat displ
O=c1[nH]c2ccccc2n1CCOc1ccccc1	-0.95	0.14
CCOc1cc(N2CCOCC2)c(OCC)cc1NC(C)=O	-1.6	·
O=S(=O)(Nc1cccc(Cl)c1)c1ccc(-n2cccn2)cc1	·	0.33
Cc1nc(-c2cc(C#N)c(NCc3ccccc3)nc2C)cs1	-0.07	·
COc1cccc(C2CC(=O)N3CN(c4ccccc4)CSC3=C2C#N)c1 (centres undefined)	0.82	-1.5
Cc1c(NC(=O)c2cc(=O)c3ccccc3o2)c(=O)n(-c2ccccc2)n1C	-0.42	0.18
CCOC(=O)c1cnc(-c2cccs2)[nH]c1=O	-2	·
O=C1C2CCCN2C(=S)N1c1ccc(Oc2ccccc2)cc1 (centres undefined)	-2.7	·
O=C1[C@@H](Cc2ccc(O)cc2)N2C(=O)CCN(C(=O)NCc3ccccc3)[C@@H]2CN1Cc1cccc2ccccc12	·	-0.31
CO/C(N)=N/C(=S)Nc1ccccc1	-2.4	·
O=c1c(SCc2ccccc2)nccn1-c1cccc(F)c1	·	-1.3
COC(=O)C1=C(C)NC2=C(C(=O)CC(C)(C)C2)C1c1ccccc1OC (centres undefined)	-0.62	-1.6
CCC(=O)N1c2ccc(S(=O)(=O)CCC(=O)N3CCCc4ccccc43)cc2CC1C (centres undefined)	·	0.49
Cc1ccc(C2CC(=O)N3CN(CCC(C)C)CSC3=C2C#N)cc1 (centres undefined)	5.2*	-2.1
C#CCn1c(C2CC(=O)N(C)C2)nc2ccccc21 (centres undefined)	-1.2	0.13
O=c1c2oc3ccccc3c2n(Cc2cccc(Cl)c2)c(=O)n1Cc1ccco1	·	0.34
CCOC(=O)C(N)Cc1c[nH]c2ccccc12 (centres undefined)	0.58	·
COCCNC(=O)CN1c2ccccc2NC2=C(C(=O)CCC2)C1c1cccs1 (centres undefined)	·	1.9
Cc1ccc(N2C(=O)C3C4c5ccccc5C(CO)(c5ccccc54)C3C2=O)c(Br)c1 (centres undefined)	-1.6	-0.83
Cn1c(=O)c(=O)n(C)c2cc(N3CCOCC3)c(NS(=O)(=O)c3cccs3)cc21	·	-1.4
O=c1cc(COc2ccccc2Cl)nc2scc(-c3ccccc3)n12	-1	1.2
CCOC(=O)N1CCC(NS(=O)(=O)c2ccc3c(c2)NC(=O)CCS3)CC1	·	0.89
CCCc1cc(=O)oc2c(C)c(OC(C)C(=O)OCC)ccc12 (centres undefined)	-0.35	·
CN(Cc1ccccc1)C(=O)c1ccc2c(c1)NC(=O)c1ccccc1S2	-1.5	-0.73
CC(C)(C)C(=O)Nc1ccn([C@H]2C[C@H](O)[C@@H](COC(=O)C(C)(C)C)O2)c(=O)n1	-0.83	·
COC(=O)C1=C(C)NC2=C(C(=O)CC(C)(C)C2)C1c1ccc(OCc2ccccc2)c(OC)c1 (centres undefined)	-1.1	-7.4
COc1ccc(OC)c(CNC(=O)Cc2cccs2)c1	-1.8	·
Cc1ccc(-c2n[nH]c(=O)c3c2CCCC3)cc1S(=O)(=O)N1CCC(C(N)=O)CC1	-0.97	-0.8
CCOC(=O)c1ccc(Oc2c(C(F)(F)F)oc3cc(O)ccc3c2=O)cc1	-1.7	0.09
CC1CCCCN1C(=O)C1c2ccccc2Oc2ccccc21 (centres undefined)	-1.6	2.2

Shown with values under each structure: entries from further up.
Every second line gives: CDC25B CDK2 inh	TAR Tat displ
- CN(Cc1ccccc1)C(=O)c1ccc2c(c1)NC(=O)c1ccccc1S2
  -1.5	-0.73
- CC(C)(C)C(=O)Nc1ccn([C@H]2C[C@H](O)[C@@H](COC(=O)C(C)(C)C)O2)c(=O)n1
  -0.83	·
- COC(=O)C1=C(C)NC2=C(C(=O)CC(C)(C)C2)C1c1ccc(OCc2ccccc2)c(OC)c1 (centres undefined)
  -1.1	-7.4
- COc1ccc(OC)c(CNC(=O)Cc2cccs2)c1
  -1.8	·
- Cc1ccc(-c2n[nH]c(=O)c3c2CCCC3)cc1S(=O)(=O)N1CCC(C(N)=O)CC1
  -0.97	-0.8
- CCOC(=O)c1ccc(Oc2c(C(F)(F)F)oc3cc(O)ccc3c2=O)cc1
  -1.7	0.09
- CC1CCCCN1C(=O)C1c2ccccc2Oc2ccccc21 (centres undefined)
  -1.6	2.2

Next section
SMILES	CDC25B CDK2 inh	TAR Tat displ
CC(=O)C1CC(=O)OC(c2ccccc2)=N1 (centres undefined)	-1.8	·
CC1=C(c2cccc(Br)c2)S(=O)(=O)NC1=NCCCN1CCc2ccccc2C1	-1.3	0.21
Cc1cccn2c(=O)c(C(=O)NCCN3CCCC3)cnc12	·	1.5
O=S(=O)(Nc1ccccc1SCc1c(F)cccc1Cl)c1cccs1	-1.8	·
Clc1cccc(-n2ncc3c(NC4CCCCC4)ncnc32)c1	·	-0.52
COc1cc2c(cc1NC(=O)CSc1nc3ccccc3o1)oc1ccccc12	-0.66	·
Cc1ccc2nc3c(cc(C#N)c(=O)n3-c3ccccc3Cl)c(=O)n2c1	-5.6	0.24
Cc1cc(N(C)Cc2ccccc2)n2nc(Cc3ccccc3)nc2n1	-0.04	1.7
Cc1noc(C)c1NC(=O)NCCN1CCN(Cc2ccccc2)CC1	-2.5	·
O=C(O)c1ccc(CNc2c(N3CCOCC3)c(=O)c2=O)cc1	·	2.7
COC(=O)C(C)Oc1ccc2c(=O)c(Oc3ccccc3Cl)coc2c1 (centres undefined)	-0.49	-0.63
c1ccc(-n2nnnc2SCCNCc2ccco2)cc1	-0.93	1.7
Cc1cc(C)c(NC(=O)CSc2nc3ncccc3o2)c(C)c1	·	-1.9

Rows were taken by chance. Share with any hit: about 0.94%.
